TRPML1 ag = activates the human TRPML1 channel | Q9GZU1 | TRPML1-expressing cells, Ca2+ dye fluorescence, FDSS; host cell line not named in the record; reference of the full effect not given here | activation, % (no concentration beside the values) | actives 0.12% (n = 410,000) | AID 624414; in the data active = activation above about 50%; inconclusive = about 30% to 50%; inactive = below about 30%; note: 0% is about no effect; the text of the record puts the active cut at 80%
Target sequence (Q9GZU1 whole entry, looked up): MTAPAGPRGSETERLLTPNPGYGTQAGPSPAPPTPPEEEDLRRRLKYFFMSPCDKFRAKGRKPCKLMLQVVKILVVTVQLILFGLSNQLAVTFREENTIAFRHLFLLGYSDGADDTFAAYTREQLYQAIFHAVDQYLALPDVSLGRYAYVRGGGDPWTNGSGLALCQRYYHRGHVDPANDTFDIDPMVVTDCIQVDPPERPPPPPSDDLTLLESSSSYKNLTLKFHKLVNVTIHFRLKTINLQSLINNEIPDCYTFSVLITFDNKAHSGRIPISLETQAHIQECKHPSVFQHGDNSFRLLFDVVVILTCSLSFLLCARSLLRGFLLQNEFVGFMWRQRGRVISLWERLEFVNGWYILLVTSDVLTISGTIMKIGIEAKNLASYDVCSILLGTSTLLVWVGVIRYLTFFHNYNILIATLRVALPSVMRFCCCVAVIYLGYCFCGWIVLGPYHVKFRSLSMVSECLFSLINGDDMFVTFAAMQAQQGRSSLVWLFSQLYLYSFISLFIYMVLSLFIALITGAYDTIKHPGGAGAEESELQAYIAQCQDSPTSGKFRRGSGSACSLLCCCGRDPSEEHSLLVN
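Tet-induced TRPML1-DL cells, 1,500 per well, cultured overnight, were loaded with a no-wash Ca2+ dye for 45–90 min. Calcium fluorescence was recorded on the FDSS for 110 s after compound addition, before the EC80 agonist (4 uM 54-4) was added.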
D2 ag = agonists of human D2 dopamine receptor (beta-arrestin). activation, % (no concentration beside the values). AID 624465. DiscoveRx PathHunter D2 beta-arrestin, luminescence, 90 min; 100% = 57 uM dopamine signal. actives 0.084% (n = 360,000). P14416; in the data active = activation above about 40%; inconclusive = about 15% to 40%; inactive = below about 15%; note: compound concentration not given in the record; the text of the record calls up to 30% inactive
Target sequence (P14416 whole entry, looked up): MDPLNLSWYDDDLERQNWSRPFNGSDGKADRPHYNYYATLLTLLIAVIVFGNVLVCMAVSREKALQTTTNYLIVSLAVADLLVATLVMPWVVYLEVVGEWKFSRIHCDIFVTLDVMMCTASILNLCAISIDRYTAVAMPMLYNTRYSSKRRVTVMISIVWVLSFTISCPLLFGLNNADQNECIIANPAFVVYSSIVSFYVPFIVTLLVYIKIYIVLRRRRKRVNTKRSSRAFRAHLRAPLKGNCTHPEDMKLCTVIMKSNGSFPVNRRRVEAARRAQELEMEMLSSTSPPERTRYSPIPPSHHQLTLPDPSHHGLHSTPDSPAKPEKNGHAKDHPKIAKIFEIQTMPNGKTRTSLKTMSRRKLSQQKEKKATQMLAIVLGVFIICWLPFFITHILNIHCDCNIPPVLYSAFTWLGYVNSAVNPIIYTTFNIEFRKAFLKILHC
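Agonist mode: compounds alone added to overnight-plated D2 PathHunter cells for 90 min at 37 C, with 57 uM final dopamine (EC100) defining full response. Beta-arrestin recruitment detected by chemiluminescent reagent, read after 1 h at ambient temperature.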
TRPML1 blocker = human mucolipin-1 channel inhibition. Q9GZU1. TRPML1-inducible cells, Ca2+ dye fluorescence, FDSS; active compounds read low; inhibition of EC80 agonist-evoked calcium signal. activity change, negative = inhibition, % (no concentration beside the values). actives 0.02% (n = 390,000). AID 624415; in the data active means activity change below about -50%; inconclusive means about -30% to -50%; inactive means above about -30%;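 note: stimulus is agonist 54-4 at its EC80 concentration; % is set by controls: 0 for no effect and ±100 for the full control effect; compound concentration not given in the record; the text of the record puts the active cut at -80%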
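Calcium fluorescence in TRPML1-DL cells induced overnight with Tet: a 110 s read after compound pin addition, then a 110 s antagonist read after challenge with 54-4 at 4 uM final (EC80).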
Six1-Eya2 blk = blocks human Six1 binding to Eya2 | Q15475+O00167 | AlphaScreen GST-Six1/His-Eya2 binding, biochemical; active compounds read low; control for the full effect not named in the record | activity change, % (test concentration not listed) | actives 0.56% (n = 360,000) | AID 651725; in the data active = activity change below about -65%; inconclusive = about -30% to -65%; inactive = above about -30%; note: % is set by controls: 0 for no effect and ±100 for the full control effect
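GST-Six1 + His-Eya2 (5X stock: 250/500 nM); Tris pH 8.0, 300 mM NaCl, 0.05% BSA, 0.02% Tween 20; GSH donor/Ni acceptor beads; 1 h 37 °C dark; AlphaScreen readout.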
PINK1 expr mod = modulators of PINK1 expression. PINK1 immunofluorescence, high-content cytometry, 24 h. AID 624263. actives 0.2% (n = 410,000). Potency, µM (titrated, usually from 76.6 µM), for inactives: top-dose activation (PINK1 increase), usual class: activators; active = well fitted activation curve with a large enough effect; inconclusive = small, poorly fitted or top-dose-only effect; inactive = flat fitted curve, though single readings scatter; cell line not stated here;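 note: potency is the fitted concentration of half-maximal effect; % of control where 0% means no effect; nearly all actives have a fitted effect of over 65% in size; a mitochondrial uncoupler was the plate control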
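Cells are seeded, rested 12 hours, then given compound at five concentrations or DMSO for 24 hours. After fixation, blocking and antibody staining, PINK1 amount and mitochondrial localization are scored; CCCP serves as control.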
CtBP-E1A blk = inhibitors of CtBP/E1A interaction | actives 0.49% (n = 340,000) | activity change, % (concentration not given with the values) | AID 651724 | AlphaScreen GST-E1A/His-CtBP binding, 1536-well; active compounds read low; control for the full effect not named in the record; in the data active means activity change below about -65%; inconclusive means about -30% to -65%; inactive means above about -30%; note: % is set by controls: 0 for no effect and ±100 for the full control effect
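AlphaScreen with 125 nM GST-E1A and 125 nM His-CtBP (5X stocks) in Tris pH 8.0, 300 mM NaCl, BSA, Tween 20, TCEP. Compounds preincubated 2 h at 37 deg C, then glutathione donor/nickel acceptor beads added for 1 h at 37 deg C in dark.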
Starred values were filed as active, the others as inactive; nt = no result given; & = joins results of further samples; [ ] = another dose, or the depositor's remark.

SMILES	TRPML1 ag	D2 ag	TRPML1 blocker	Six1-Eya2 blk	PINK1 expr mod	CtBP-E1A blk
C[N+](C)=C1SCC(C)(/C=N/O)S1 (stereo unspecified)	-0.5	-2.1	8	-2	0.3%	3
COc1ccc(-n2nc(C(=O)NCC(=O)N3CC(C)CC(C)C3)c3ccccc3c2=O)cc1OC (stereo unspecified)	0.0	8.7	49	2	1.8%	11
O=C(NC1=NCCS1)c1nc(-c2ccccc2)n(-c2ccccc2)n1	0.4	-0.4	-2	-11	-0.3%	-4
CCC(CC)c1nnc(NC(=O)CCc2ccccc2)s1	-0.6	7.7	-6	7	1.7%	6
Cc1ccc(NC(=O)Nc2ccc3c(c2)CCC3)cc1C	-0.6	-0.3	9	5	-0.5%	2
COc1ccc(N2C(=O)CC(Sc3nc(C)cc(C)c3C#N)C2=O)cc1 (stereo unspecified)	0.3	0.6	12	3	-1.8%[38.3 µM]	1
Clc1ccc(Cc2ccccc2)nn1	-0.1	-2.7	-1	2	0.0%	4
COc1ccc(S(=O)(=O)Nc2ccc(CC#N)cc2)cc1	2.4	0.3	7	4	0.3%	8
O=C(CCC(=O)c1ccc(F)cc1)Nc1ccccc1Cl	0.9	-7.6	9	1	2.9%	-10
COc1ccc(NC(=S)NCCc2c[nH]c3ccc(OC)cc23)c(OC)c1	0.2	-2.7	6	-21	nt	8
CN(Cc1ccccc1)C(=O)c1ncn(C)c1C(=O)N(C)Cc1ccccc1	-0.4	0.8	14	-4	-0.4%	5
CCCCOC(=O)c1ccccc1N1C(=O)C2C3CCC(C3)C2C1=O (stereo unspecified)	-0.2	-2.9	-3	11	3.8%	5
CCCNC(=O)NNC(=O)c1ccc(F)cc1	-0.9	-2.7	65	4	0.7%	4
CCOc1ccc(N2C(=O)C3CCCN3C2=O)cc1 (stereo unspecified)	-0.9	-1.6	4	4	-1.1%	4
CCCNC(=O)C1CCC(Cn2c(=O)c3sccc3n(CC(=O)N3CCCC3)c2=O)CC1 (stereo unspecified)	1.2	nt	-13	nt	0.0%	nt
O=S(=O)(c1ccccc1F)N1CCN(c2nc3ccccc3s2)CC1	0.0	3.4	-3	9	6.7%	8
CC1(OC(=O)CCc2ccccc2)C(=O)C=C2C=C(c3ccc(C#N)cc3)N(CCc3c[nH]c4ccccc34)C=C2C1=O (stereo unspecified)	-0.5	11	11	-16	1.3%	-18
Cc1nnc(Sc2c(-c3ccccc3)c3ccc(Cl)cc3[nH]c2=O)s1	0.8	0.3	-4	-3	-3.0%[38.3 µM]	8
Cc1ccc(-c2csc(NC(=O)C3=COCCO3)n2)cc1	1.1	-0.8	10	4	4.4%	1
O=C(O)CCC(=O)Nc1sc2c(c1C(=O)NCc1ccccc1)CCCC2	-0.1	-2.9	0	4	0.2%	0
O=C(O)c1ccc(NC(=O)C2CCCCC2)cc1	-0.2	-1.2	17	6	0.0%	2
Cc1cc(C)nc(CCNC(=O)c2cc(COc3c(F)cccc3F)on2)n1	-0.7	-2.7	1	-1	0.5%	3
COC(=O)c1ccccc1N(C)S(=O)(=O)c1cc2c(cc1C)OCC(=O)N2	-0.7	4.5	-2	-3	3.0%	6
CC(Nc1ccccc1)c1cc(Cl)ccc1O (stereo unspecified)	0.9	-3.6	-13	-4	-1.0%	0
COc1ccc(N2C(=O)C3CCCN3C2c2ccccc2)cc1Cl (stereo unspecified)	0.0	-2.3	13	3	-2.3%	-1

(continued)
SMILES	TRPML1 ag	D2 ag	TRPML1 blocker	Six1-Eya2 blk	PINK1 expr mod	CtBP-E1A blk
COC(=O)[C@]1(C)N[C@H](CN(C)S(=O)(=O)c2ccc(C)cc2)[C@@H]2C(=O)N(C)C(=O)[C@@H]21	-0.7	-0.4	1	4	0.3%	4
CC(=O)Nc1ccccc1-c1nc2ccccc2n(C(C)C(=O)Nc2cccc(C)c2C)c1=O (stereo unspecified)	0.1	nt	2	nt	0.9%	nt
O=C(O)c1cccc(C(=O)c2cccc3ccccc23)c1	3.1	4.8	40	0	0.1%	3
C#CCOCCOCCOCCNc1nc(N2CCN(C(=O)[C@H](CO)n3cc([C@@H](N)C(C)C)nn3)CC2)nc(N2CCN(C(=O)[C@H](CCC(=O)O)n3cc([C@@H](N)CCCCN)nn3)CC2)n1	0.1	-0.8	3	-8	-0.1%	-12
CC(/C=C/c1ccccc1F)=N\NC(=O)c1ccccc1	-1.1	0.7	2	0	-0.9%	0
Cc1ccc(C)c(N2CCN(C(=O)c3cc4c(=O)n(Cc5cccnc5)ccc4nc3C)CC2)c1	0.7	nt	-22	nt	1.7%	nt
C#CCOCCOCCOCCNc1nc(N2CCN(C(=O)Cn3cc(CCCCN)nn3)CC2)nc(N2CCN(C(=O)[C@H](Cc3ccc(O)cc3)n3cc(CCO)nn3)CC2)n1	2.7	0.9	17	-7	-0.6%	8
COc1cccc(NC(=O)NC2CCN(Cc3nnnn3Cc3ccc(F)cc3)CC2)c1	1.3	1.4	-7	0	-0.1%	-1
CCCCCc1cc(=O)oc2c(C(CCN3CCCC(C)C3)c3cc(OC)c(OC)c(OC)c3)c(OC)cc(OC)c12 (stereo unspecified)	1.0	1.0	-15	-7	-2.2%	-23
O=C(NCc1cccnc1)C(=O)C1C(=O)Nc2ccccc21 (stereo unspecified)	-0.4	-4.0	17	4	1.2%	-14
COc1cccc(-n2c(CN3CCN(c4ccccn4)CC3)nc3ccc([N+](=O)[O-])cc3c2=O)c1	0.2	-0.6	10	-9	1.8%	nt
COc1ccc(/C=N/NC(=O)CNC(=O)c2ccc3c(c2)OCCO3)c(C(=O)O)c1OC	-0.8	-1.6	-6	7	-0.6%	-1
COc1ccc(N(C)C(=O)c2oc(=O)c3ccccc3c2-c2ccc(C)cc2)c(OC)c1	-0.5&0.2	-1.1	5&-8	-1	-0.3%&1.5%	-15
COc1ccc(NC(=O)CSCC(=O)Nc2ccccc2N2CCCCC2)cc1	3.8	0.6	-7	11	1.3%	9
O=C(CN(c1cccc(C(F)(F)F)c1)S(=O)(=O)c1ccc(Cl)c([N+](=O)[O-])c1)NCc1ccc(F)cc1	1.2	4.9	13	1	-2.3%	10
FC(F)(F)c1cc(-c2ccccc2)nc(N2CCCCCC2)n1	0.7	-3.8	13	23	22%	21
O=C(NCc1cccc(Cl)c1)C1=CC=CN2CCS(=O)(=O)N=C12	0.0	-1.6	-3	4	1.7%	4
Cc1ccc(C(=O)c2no[n+]([O-])c2C(=O)c2ccc(C)cc2)cc1	-0.4	0.5	2	-4	0.3%	-5
Cc1cc(C(=O)c2cccs2)c(N)s1	-0.3	-1.4	-4	-18	-4.2%[38.3 µM]	16
Clc1ccc2c(N3CCCC3)ccnc2c1	0.5	3.4	36	6	0.7%	-5
CCc1ccc(N(C)S(=O)(=O)c2ccc3[nH]cc(C(=O)NCCN4CCOCC4)c(=O)c3c2)cc1	0.7	1.8	5	-1	0.9%[38.3 µM]	0
O=C(NNC(=O)C1CCN(S(=O)(=O)c2ccc(Cl)cc2)CC1)c1ccccc1O	1.8	1.3	-3	-10	0.9%	-6
O=C(c1[nH]c(C(F)(F)F)nc1-c1ccccc1)N1CCN(c2ccc(C(F)(F)F)cn2)CC1	0.4	3.5	38	-12	1.8%	-4
COCc1cc(CNC(=O)C2CCC(=O)N(Cc3ccccc3OC)C2)[nH]n1 (stereo unspecified)	0.6	-0.7	-9	1	-0.7%	-10
Cc1ccc(-c2nnc(SCC(=O)Nc3ccccc3F)o2)cc1	2.1	0.8	6	-2	8.8%	3

Continued.
SMILES	TRPML1 ag	D2 ag	TRPML1 blocker	Six1-Eya2 blk	PINK1 expr mod	CtBP-E1A blk
O=C(CSCc1ccccc1Cl)Nc1c[nH]c(=O)[nH]c1=O	-0.6	-3.3	7	-2	4.5%	0
CCN(CC(=O)Nc1c(F)cccc1F)C(=O)Cc1ccsc1	0.9	-1.6	-15	9	0.3%	-2
CCOC(=O)CCc1c(C)nc(SCc2ccc(C(=O)O)cc2)c(C#N)c1C	0.0	-5.0	-9	0	2.4%	-11
Cc1nc2c3cc(F)ccc3n(Cc3ccc(F)cc3)c2s1	1.5	-4.5	75	-1	5.6%	-6
CCOC(=O)CNC(=O)N(CCOC)CC1CCCN(C2Cc3ccccc3C2)C1 (stereo unspecified)	0.2	-3.5	0	5	0.1%	7
O=c1c2cccnc2nc2n1CCCCC2	-0.2	-2.4	24	0	1.9%	2
Cc1noc(C)c1COC(=O)c1ccc(S(=O)(=O)NCc2ccco2)cc1	1.4	0.9	-20	-25	0.0%	-6
Cc1cc(=O)[nH]c(Nc2cccc(C(F)(F)F)c2)n1	-1.5	0.8	-10	-3	10%	-1
COC(=O)[C@H]1C[C@@]2(O)CN(S(=O)(=O)c3ccc(C)cc3)C[C@@]2(OC(=O)NCc2ccccc2F)C[C@H]1C(=O)OC	-0.2	-6.2	4	2	2.6%	1
COc1ccc(C(=O)NC2CCN(CC(=O)Nc3cccc(C)c3)CC2)cc1OC	3.5	-1.8	-13	-4	-0.3%	-1
CCOC(=O)C(C)Sc1nc(-c2ccccc2)nc2ccccc12 (stereo unspecified)	5.1	-3.5	-1	30	18%	40
COCn1ccnc1C(O)(c1ccc(OC)cc1)c1ccc(OC)cc1	0.4	2.7	-9	4	-0.7%	-8
COc1cc(C2SC(C)C(=O)N2CCc2ccccc2)cc(OC)c1OC (stereo unspecified)	0.4	-2.8	5	7	0.9%	1
O=C(CSc1nnc(CN2CCCC2)n1-c1ccccc1)c1ccc2c(c1)OCO2	0.0	-5.7	8	-16	-0.6%	2
O=C(CSc1ncnc2c1nnn2Cc1ccccc1F)NCC1CCCO1 (stereo unspecified)	-0.6	-3.7	9	1	1.1%	32
O=C(NCc1nnc(SCC(=O)N2CCCc3ccccc32)o1)c1ccccc1F	1.9	-1.3	-2	6	-0.9%	-15
COc1cc(C2c3c(oc4ccccc4c3=O)C(=O)N2Cc2ccncc2)ccc1O (stereo unspecified)	-0.1	-1.6	-5	5	-1.0%	0
COc1ccc(C(Nc2ccc(S(=O)(=O)N3CCOCC3)cc2)C(=O)NCCC(C)C)cc1OC (stereo unspecified)	-1.5	-2.8	-7	9	7.8%	19

Looked up by compound from above, 6 records:
SMILES	TRPML1 ag	D2 ag	TRPML1 blocker	Six1-Eya2 blk	PINK1 expr mod	CtBP-E1A blk
O=C(CSc1nnc(CN2CCCC2)n1-c1ccccc1)c1ccc2c(c1)OCO2	0.0	-5.7	8	-16	-0.6%	2
O=C(NCc1nnc(SCC(=O)N2CCCc3ccccc32)o1)c1ccccc1F	1.9	-1.3	-2	6	-0.9%	-15
O=C(CSc1ncnc2c1nnn2Cc1ccccc1F)NCC1CCCO1 (stereo unspecified)	-0.6	-3.7	9	1	1.1%	32
COCn1ccnc1C(O)(c1ccc(OC)cc1)c1ccc(OC)cc1	0.4	2.7	-9	4	-0.7%	-8
O=c1c2cccnc2nc2n1CCCCC2	-0.2	-2.4	24	0	1.9%	2
COc1cc(C2SC(C)C(=O)N2CCc2ccccc2)cc(OC)c1OC (stereo unspecified)	0.4	-2.8	5	7	0.9%	1
